Screening data (PubChem BioAssay)
UUG fidelity: yeast start codon fidelity modulation. S. cerevisiae UUG-firefly luciferase reporter, luminescence/redox ratio. activity score, % at 18.7 µM. 0.13% of 350,000 active. AID 602363;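 active = replicate mean at a twofold rise or more, about +100% in these data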;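 note: firefly luciferase made from a UUG start codon reports start codon fidelity; reporter light over untreated wells divided by growth signal over untreated wells; some hits fall short of that in this replicate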
CSC inhib: cancer stem cell inhibition | cancer stem cell-like cells viability, luminescence | inhibition, % at 7.5 µM | 1.1% of 300,000 active | AID 2717;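 active = mean at 75% or more and at least half the replicates too; tested in HMLE shEcad cells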;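 note: 0% = median of negative and 100% = median of positive control wells; the first replicate is given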
eIF4H FP inh: inhibitors of RNA binding by human eIF4H; 0.94% of 290,000 active; Q15056; inhibition, % at 35 µM; eIF4H fluorescence polarization binding assay;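 active = 50% or more with normal probe brightness, or confirmed in later tests; about a fifth of its hits are not listed in these tables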;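 note: calls also rest on retests at 20 µM and on dose response follow-up; 0% = protein and probe with vehicle and 100% = probe without protein; strong numbers were not always called active; many hits fall short of the cut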
HIV Env fusion: inhibitors of HIV Env-mediated cell fusion; HeLa-JRFL Env/CEM21 cell fusion, luciferase; inhibition, % at 12.3 µM; 1.1% of 360,000 active;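 active = mean replicate inhibition score of at least 50 and every replicate individually at or above 50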;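 note: 0% = plate neutral controls and 100% = maraviroc near 300 nM; one replicate is shown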
MT1-MMP act inh: blocks activation of human MT1-MMP; P50281; HT1080 RFP-PRO-GFP cells, GFP/RFP ratio fluorescence, overnight; percent of plate control window, DMSO zero; GFP/RFP ratio change, % at 20 µM; 0.061% of 360,000 active; AID 651647;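 active = GFP/RFP ratio change of at least 30% with cell ATP level not reduced by more than half and red fluorescence within 50% of control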; note: strong numbers were not always called active
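Test system: HT1080 cells expressing an RFP-PRO-GFP fluorescent reporter construct / Compound dosing: single-point 20 µM compound, 1% DMSO / Schedule: cells overnight before dosing, compound overnight, 37 °C, 5% CO2 / Evaluation: GFP/RFP fluorescence ratio / Control set: DMSO and RFP-L50D-GFP cell wells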
Rce1 inhib: inhibitors of yeast Ras-converting enzyme | Q03530 | calls only | 0.27% of 290,000 active | yeast membranes, quenched prenylated peptide cleavage fluorescence | AID 2563;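 active = fall in fluorescence gain of 50% or more versus controls, with final raw signal at or below 3038400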;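 note: plate controls were neutral control wells for no effect and wells lacking membranes for full effect; tested at 10 µM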
Target sequence (Q03530 whole entry, looked up): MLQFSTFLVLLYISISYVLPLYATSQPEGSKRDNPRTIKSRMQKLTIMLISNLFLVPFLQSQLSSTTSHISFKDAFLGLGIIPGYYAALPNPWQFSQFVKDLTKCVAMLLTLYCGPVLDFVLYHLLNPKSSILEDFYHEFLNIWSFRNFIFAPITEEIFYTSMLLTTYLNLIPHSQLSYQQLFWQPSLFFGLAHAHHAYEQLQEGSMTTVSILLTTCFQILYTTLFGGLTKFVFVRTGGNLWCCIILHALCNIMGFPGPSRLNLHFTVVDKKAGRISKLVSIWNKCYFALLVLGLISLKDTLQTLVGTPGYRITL
PABP polyA inh: blocks human PABP binding to poly(A) RNA; P11940; fluorescence polarization; inhibition, % at 35 µM; 1% of 290,000 active; AID 2014;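 active = 50% or more with normal probe brightness, or confirmed in later tests; about a fifth of its hits are not listed in these tables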;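 note: calls also rest on retests at 20 µM and on dose response follow-up; controls were probe without protein and protein plus probe with vehicle; some compounds called inactive have numbers as strong as hits; many hits fall short of the cut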
Target sequence (P11940 whole entry, looked up): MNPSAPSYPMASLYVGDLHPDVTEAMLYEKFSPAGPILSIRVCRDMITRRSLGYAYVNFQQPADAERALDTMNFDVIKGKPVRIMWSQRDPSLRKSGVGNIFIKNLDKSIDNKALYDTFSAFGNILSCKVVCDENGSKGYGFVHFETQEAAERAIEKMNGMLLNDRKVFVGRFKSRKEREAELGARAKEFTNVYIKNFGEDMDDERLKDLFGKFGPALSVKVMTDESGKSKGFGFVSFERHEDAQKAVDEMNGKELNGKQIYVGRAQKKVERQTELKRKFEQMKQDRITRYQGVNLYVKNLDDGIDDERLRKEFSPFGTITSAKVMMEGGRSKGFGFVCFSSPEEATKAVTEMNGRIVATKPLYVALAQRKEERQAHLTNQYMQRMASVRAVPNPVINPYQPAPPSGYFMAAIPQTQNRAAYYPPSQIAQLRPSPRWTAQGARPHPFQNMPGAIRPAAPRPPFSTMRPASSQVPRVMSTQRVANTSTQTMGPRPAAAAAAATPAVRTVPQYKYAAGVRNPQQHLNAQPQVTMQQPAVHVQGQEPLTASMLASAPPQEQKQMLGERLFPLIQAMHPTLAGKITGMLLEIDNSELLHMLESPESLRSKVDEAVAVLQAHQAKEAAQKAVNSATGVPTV
eIF4H FP inh retest: second read-out of eIF4H FP inh, no call of its own (marks repeat the call); inhibition, %; compound at 20 µM; confirmation average;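 mean of two retest wells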
PABP polyA inh retest: recorded beside PABP polyA inh, whose call it bears; inhibition, %; compound at 20 µM; confirmation repeats;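 mean of two retest wells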
MT1-MMP act inh RFP: further read-out of MT1-MMP act inh, marked with its call; RFP signal change, %; measured here: RFP expression control read;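 0 = vehicle wells; hits needed this value within 50% of zero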
* marks the source's active call; other numbers are inactive results; i = inactive; . = no result given; & = joins results of further samples. An excerpt; count on the stated rates, not on these rows.

SMILES	UUG fidelity	CSC inhib	eIF4H FP inh	HIV Env fusion	MT1-MMP act inh	MT1-MMP act inh RFP	Rce1 inhib	PABP polyA inh	others
N#Cc1c(SCC(=O)Nc2ccc(Cl)cc2Cl)sc2c(O)cc(=O)[nH]c12	-23	-2	17	-20	1	6	.	19
CCn1c(NC(=O)c2ccccc2)c(-c2cccs2)c(=O)c2ccccc21	-6	-1	14	-30	-4	-1	i	2
COc1ccc(CNC(=O)OCCN2CCN(Cc3ccccc3)CCC2=O)cc1	-18	-13	0	-1	1	-2	i	-8
O=C(CSc1nnc(-c2ccc(O)cc2)n1Cc1ccccc1)NNC(=O)c1ccc(Br)cc1	.	.	-7	-16	-2	-3	i	4
CCCCOCC1CC(CC#CCN2CCCCC2)C(=O)O1 (centres undefined)	18	.	3	-11	1	7	.	3
CCOc1c(C)cnc2c1c(=O)n(Cc1ccc(Cl)cc1)c(=O)n2C	-7	1	-1	85*	-9	-3	i	-6
COc1ccc(CNC(=O)CN2C(=O)COc3ccc(S(=O)(=O)N4CCCCC4)cc32)cc1	-16	-8	.	1	2	0	i	.
COc1ccccc1OCC(=O)NNC(=O)CCCC(=O)NNC(=O)COc1ccccc1OC	-4	-20	-3	3	-2	-1	i	-4
CN(C)S(=O)(=O)c1cc(NC(=O)C2=COCCO2)ccc1Cl	-28	5	.	8	1	4	.	.
COc1ccc(CCNC(=O)c2nnn(CC(=O)Nc3ccccc3C)c2N)cc1OC	-17	7	-3	-7	-3	1	i	-3
Cc1cc(C)n(CC(C)NCc2c(C(=O)N3CCOCC3)nc3c(C)cccn23)n1 (centres undefined)	-10	-9	-7	1	-5	0	i	4
CC(C)(C)C(=O)Oc1cc(N)n(S(=O)(=O)c2ccccc2)n1	-2	16	1	-86	-6	-2	i	2
CN(C)/C=N/C(=S)Nc1ccc(F)cc1	-22	-7	-12	.	3	8	i	0
CCOC(=O)c1c(NC(=O)c2ccoc2C)sc(C(=O)N(C)C)c1C	-17	-12	-4	.	-4	0	i	4
Cc1cc(N2CCCC2)nc2ccc(NC(=S)NCCCOC(C)C)cc12	.	1	-8	-31	7	5	i	-11

Compounds shown so far with an aryl methoxy group:
SMILES	UUG fidelity	CSC inhib	eIF4H FP inh	HIV Env fusion	MT1-MMP act inh	MT1-MMP act inh RFP	Rce1 inhib	PABP polyA inh	others
COc1ccc(CNC(=O)OCCN2CCN(Cc3ccccc3)CCC2=O)cc1	-18	-13	0	-1	1	-2	i	-8
COc1ccc(CNC(=O)CN2C(=O)COc3ccc(S(=O)(=O)N4CCCCC4)cc32)cc1	-16	-8	.	1	2	0	i	.
COc1ccccc1OCC(=O)NNC(=O)CCCC(=O)NNC(=O)COc1ccccc1OC	-4	-20	-3	3	-2	-1	i	-4
COc1ccc(CCNC(=O)c2nnn(CC(=O)Nc3ccccc3C)c2N)cc1OC	-17	7	-3	-7	-3	1	i	-3

Later entries
SMILES	UUG fidelity	CSC inhib	eIF4H FP inh	HIV Env fusion	MT1-MMP act inh	MT1-MMP act inh RFP	Rce1 inhib	PABP polyA inh	others
Cc1ccc(CN(C)C(=O)c2cccc(S(=O)(=O)N3CCc4ccccc43)c2)cc1	-9	8	.	31	-5	-8	.	.
CCOC(=O)N1CCC(NC(=O)CSc2cc(=O)n(C)c3ccccc23)CC1	-15	4	6	1	0	-5	i	12
CN(C)c1ccc(/C=N/NC(=O)COc2ccccc2)cc1	-8	-12	3	-1	0	3	i	1
CCC(=O)Nc1nc(C)c(C(=O)NC2CCCCC2)s1	-9	-6	0	-31	4	5	i	-7
CC(=O)Nc1ccc(OS(=O)(=O)c2ccc(C)cc2C)cc1	.	7	4	-4	2	1	i	-5
CC(C)C(=O)C1=Cc2cccc([N+](=O)[O-])c2OC1N1CCOCC1 (centres undefined)	-18	.	.	7	-1	1	.	.
CC1(c2ccc(Cl)cc2)NC(=O)N(CC(=O)NC(=O)NCc2ccco2)C1=O (centres undefined)	-5	-14	-7	-5	-7	-7	i	2
O=C1C2C3C=CC(C3)C2C(=O)N1CCc1ccccc1 (centres undefined)	.	.	-9	-10	-4	4	i	2
CCc1ccc(C(=O)NNC(=O)c2cc(S(=O)(=O)N(C)C)ccc2N2CCCC2)cc1	-23	-8	-2	-31	2	3	i	-7
NC(=O)c1cc[n+](Cc2ccccc2Cl)cc1	-1	-24	-14	2	-4	5	i	4
O=S(=O)(NCCSc1nc2ccccc2o1)c1ccccc1	-15	-5	-2	.	2	-1	i	5
O=C1[C@H]2[C@@H](c3ccc(F)cc3)N3C(=O)N(c4cccc(Cl)c4)C(=O)[C@@]3(Cc3ccc(Cl)cc3)[C@H]2C(=O)N1C1CCCCC1	-6	12	7	99*	0	-10	i	4
Cc1cccc(C)c1OCC(=O)NNC(=O)CCNC(=O)c1ccco1	.	-8	.	.	2	-2	i	.
COC(=O)C1=C(C)Nc2nc(SCc3ccccc3)[nH]c(=O)c2C1c1cccs1 (centres undefined)	-39	4	-4	12	0	-6	i	85	eIF4H FP inh retest=-10;PABP polyA inh retest=7
COc1ccc(C2Nc3ccccc3C(=O)N2NS(=O)(=O)c2ccc(C)cc2)c(OC)c1 (centres undefined)	-16	-5	6	-3	-1	1	.	14

2 entries picked at random from the list so far:
SMILES	UUG fidelity	CSC inhib	eIF4H FP inh	HIV Env fusion	MT1-MMP act inh	MT1-MMP act inh RFP	Rce1 inhib	PABP polyA inh	others
CCC(=O)Nc1nc(C)c(C(=O)NC2CCCCC2)s1	-9	-6	0	-31	4	5	i	-7
CCc1ccc(C(=O)NNC(=O)c2cc(S(=O)(=O)N(C)C)ccc2N2CCCC2)cc1	-23	-8	-2	-31	2	3	i	-7

Going on with the list.
SMILES	UUG fidelity	CSC inhib	eIF4H FP inh	HIV Env fusion	MT1-MMP act inh	MT1-MMP act inh RFP	Rce1 inhib	PABP polyA inh	others
Cc1ccc(N(C(C)C(=O)Nc2ccccc2C(=O)N2CCOCC2)S(C)(=O)=O)cc1C (centres undefined)	-3	2	-22	.	-1	-1	i	-4
Cn1c(CNc2ccc(Cl)cc2)nnc1SCCN1CCCCC1	-12	38	1	.	0	-1	i	-3
Cc1ccccc1-n1nc(CSc2nc3ccccc3[nH]2)c(-c2ccccc2)c1N	.	23	0	22	1	-5	i	-6
O=C(Cn1nnc2ccccc21)Nc1ccccc1[N+](=O)[O-]	-3	.	4	-7	0	-1	i	0
O=C(CN1CCCC1)N1c2ccccc2Sc2ccc(C(F)(F)F)cc21	9	0	-5	.	0	0	i	32
O=C(c1cnccn1)N1CCc2c([nH]c3ccccc23)C1c1cccc(Cl)c1 (centres undefined)	-14	23	-9	-23	-5	-4	i	-1
CC/C(=N\NC(=O)C1CC1)c1cccc(Cl)c1	.	-10	-15	-6	-3	2	i	-6
O=C(NNC(=O)C1CC2CCC1C2)c1sc2ccccc2c1Cl (centres undefined)	.	3	-12	-13	3	3	i	3
COc1ccccc1-n1c(SCC(=O)Nc2cccc(C(=O)O)c2)nnc1-c1ccccc1O	-12	.	-4	-4	-2	4	i	-8
Cc1cccc(NC(=O)N2CCC(c3nc4ccccc4o3)CC2)c1	-11	4	-1	-4	4	-3	i	-7
CC(=O)Nc1cccc(Oc2ccc3c(c2)C(=O)N(CCC(=O)O)C3=O)c1	-16	.	-6	.	5	4	i	4
O=C(CCS(=O)(=O)c1ccc(F)cc1)Nc1nc(-c2ccccn2)cs1	-36	-9	-7	5	-4	-5	i	-5
O=c1c2c([N+](=O)[O-])cc([N+](=O)[O-])cc2nc2ccccn12	-15	1	82*	0	-5	-2	.	57*
CC(C)(C)NS(=O)(=O)CC12CCC(CC1=O)C2(C)C (centres undefined)	-11	2	-11	.	3	5	i	-7
OCc1cnc(SCc2ccccc2)n1Cc1ccccc1	-8	-3	-5	-10	-3	-2	i	-12
COc1ccc2cc(CN(Cc3cccnc3)Cc3nnnn3Cc3ccccc3)c(=O)[nH]c2c1	.	17	-9	.	.	.	i	2
NC(=O)c1ccsc1NC(=O)COC(=O)c1cnccn1	-5	.	.	1	8	5	.	.
COc1ccc(NC(=O)N(C)C[C@H]2OCCCC[C@@H](C)Oc3ccc(NC(=O)c4ccccc4)cc3C(=O)N([C@H](C)CO)C[C@@H]2C)cc1	-1&-1	.	.	-96	-1	1	.	.
Cc1ccc(SCCC(=O)N/N=C/c2ccccc2O)cc1	.	22	-2	6	4	0	i	-5
CCC(=O)N=C1SC2CS(=O)(=O)CC2N1c1cccc(OC)c1 (centres undefined)	10	-9	0	-28	2	5	i	2
CCOc1ccc(N(CC(N)=O)S(=O)(=O)c2ccc(F)cc2)cc1	-18	-3	2	.	3	1	i	2
COc1ccc(NC(=O)Cc2c(F)cccc2Cl)c(OC)c1	12	6	5	32	2	5	i	7
Cc1c(Cc2ccccc2)c(=O)oc2cc(OCC(=O)N[C@@H](Cc3ccccc3)C(=O)O)ccc12	11	-5	-7	.	2	3	i	12
CC(=O)Nc1ccc(NC(=O)C(C)OC(=O)CNC(=O)c2sc3ccccc3c2Cl)cc1 (centres undefined)	.	-7	-6	.	-2	0	i	21
O=C(CSc1nnc(Cc2cccs2)n1CCc1ccccc1)N1CCCc2ccccc21	-6	-4	17	-31	-4	-6	i	0
Cc1ccccc1Cn1c([N+](=O)[O-])cnc1C	.	1	6	.	3	-3	i	2
Cc1nn(Cc2ccc(Cl)cc2)c(C)c1NC(=O)/C=C/c1cnn(C)c1	.	-7	13	-13	3	4	i	-1
CCOC(=O)c1cccc(OCC(O)CNCCOc2ccccc2F)c1 (centres undefined)	9	-1	2	10	2	1	.	-13
C/C(=N\NS(=O)(=O)c1ccc(C)cc1)c1ccc(Br)s1	-10	-3	-14	-56	2	5	i	9
Cc1ccccc1OCC(=O)Nc1cnn(CCCC(=O)O)c1	-17	-4	4	1	1	4	.	6
C=CC[C@@H]1C=C[C@H](O/N=C/[C@@H](NS(=O)(=O)c2ccc(C)cc2)[C@H](C)/C=C/CC(=O)OC)[C@@H](CO)O1	.	0	-11	.	.	.	i	0
COc1ccc(Cl)cc1NC(=O)CSc1nc(NS(=O)(=O)c2ccc(C)cc2)cc(=O)[nH]1	0	-16	-12	13	7	4	i	6
O=C(NCc1cccc(Br)c1)C1CC(c2ccccc2[N+](=O)[O-])=NO1 (centres undefined)	-12	3	.	6	1	5	i	.
CCCCn1c(=NC(=O)c2ccc3c(c2)OCO3)c(C#N)cc2c(=O)n3cccc(C)c3nc21	1	26	81*	.	-6	-10	.	58*
O=S(=O)(c1ccc2oc3ccc(S(=O)(=O)N4CCCCC4)cc3c2c1)N1CCCCC1	-7	-8	-3	-105	4	0	i	4
COc1ccc(-c2c(NC(=O)c3ccco3)n(C)c3ccccc3c2=O)cc1	-22	.	-8	-13	0	3	i	-9
Cc1c(Cl)cccc1NC(=S)N1CCCCCC1	-9	22	8	12	-4	1	i	-6
COC(=O)N1c2ccccc2C=Cc2ccccc21	-10	-15	7	2	5	0	i	-2
CCNC(=O)C(=O)NCCC1CCCCN1S(=O)(=O)c1cccs1 (centres undefined)	-1	-11	.	-17	-1	2	i	.
COc1ccc(CC2(CO)CCN(Cc3ccc(OC(F)(F)F)cc3)CC2)cc1	0	19	6	14	3	-8	i	-4
NC(=O)CNc1n[nH]c(=S)[nH]c1=O	.	-15	-2	-34	-1	4	i	6
CC1(C)CC(=O)C2=C(C1)OC(N)=C(C#N)C2C#Cc1ccccc1 (centres undefined)	3	-2	6	4	-115	-2	i	7
Fc1ccc(-c2nnc3n2CCCCC3)cc1	.	-10	0	10	-1	-1	i	6
O=C1NC(=O)C(CC(=O)N(c2ccccc2)C2(C(=O)NC3CCCC3)CCCCC2)N1 (centres undefined)	-3	14	-4	.	2	6	i	-10
O=C(C#Cc1ccccc1)c1ccc([N+](=O)[O-])cc1	-12	.	-1	-131	9	-8	i	-13
COc1ccc(/C=C/C(=O)Oc2cc(O)cc(O)c2)cc1	.	-8	-1	24	1	4	i	-2
